Assay outcomes: PubChem, ICCB-Longwood Screening Facility, Harvard Medical School
HCMV UL50-53 inh: cytomegalovirus nuclear egress complex inhibition; HTRF UL50-UL53 interaction, normalized percent inhibition; inhibition, % (no concentration beside the values); 190,000 tested, 0.15% active; AID 1918969;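 active = both replicates at 50% or more, plus weaker picks with an unusually low signal ratio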;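 also: stock transfer was 100 nL into about 20 µL; 0% = negative control wells and 100% = wells with untagged competitor protein; inactives centre near -12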
Sa growth inh: blocks Staphylococcus aureus growth. relative growth, % (concentration not given with the values). 170,000 tested, 0.53% active. S. aureus RN4220 growth, OD600, 20 h, 42 °C; stronger effect = lower value. AID 720641;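 active = growth at 42 °C up to 50% and 20 or more points under that at 30 °C, or under 10% at both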;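 also: 300 nL library stock went into each well; scaled to the means of positive and negative controls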
GIV Gai3 FP: blocks GIV peptide binding to rat Galpha-i3 | P08753 | Galpha-i3/FITC-GIV peptide fluorescence polarization, 90 min; stronger effect = lower value; scaled: aluminum fluoride 0%, vehicle 100% | percent of control (FP), % (concentration not given with the values) | 210,000 tested, 0.42% active | AID 1224905;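 active = replicate mean at 85% of control or lower, very high polarization wells dropped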;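 also: wells of about 15 µL received 100 nL stock; the first replicate is given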
Target sequence (P08753 whole entry, looked up): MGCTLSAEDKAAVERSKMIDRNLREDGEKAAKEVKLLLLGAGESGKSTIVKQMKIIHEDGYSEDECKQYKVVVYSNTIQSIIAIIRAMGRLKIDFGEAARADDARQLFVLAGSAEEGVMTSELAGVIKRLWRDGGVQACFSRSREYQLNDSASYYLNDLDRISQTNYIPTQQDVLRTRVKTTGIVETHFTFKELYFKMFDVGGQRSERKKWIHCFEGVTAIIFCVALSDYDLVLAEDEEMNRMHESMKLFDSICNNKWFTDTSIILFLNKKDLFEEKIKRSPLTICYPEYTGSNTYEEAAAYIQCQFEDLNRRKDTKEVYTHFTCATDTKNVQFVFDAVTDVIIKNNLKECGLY
Sa growth inh second temp: further read-out of Sa growth inh, marked with its call; relative growth, %; measured here: growth at 30 °C;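 optical density after 20 h as mean of two plates; 100% = untreated growth and lower means inhibition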
* marks the source's active call; other numbers are inactive results.

How did C/C(=N/Nc1nc2ccccc2s1)C1=C(O)c2ccccc2C1=O do in these assays?
HCMV UL50-53 inh: -11; Sa growth inh: 81; GIV Gai3 FP: 103; Sa growth inh second temp: 82

What do the screens show for `Cc1noc(C)c1CSc1ccccc1C(=O)Nc1nccs1`?
HCMV UL50-53 inh: -12; Sa growth inh: 86; Sa growth inh second temp: 95

What do the screens show for `N#CC1=C(N)N2C(=C(C#N)C1c1cccnc1)Sc1ccccc12` (stereo not drawn)?
HCMV UL50-53 inh: -11; Sa growth inh: 74; GIV Gai3 FP: 102; Sa growth inh second temp: 56

How did CC(C)NC(=O)c1ccc(-c2ccc(F)cc2)o1 do in these assays?
HCMV UL50-53 inh: -17; Sa growth inh: 78; GIV Gai3 FP: 106; Sa growth inh second temp: 88

How did COc1ccc(NC(=O)CSC2=Nc3ccccc3N=C(c3ccc(F)cc3)C2)cc1OC do in these assays?
Sa growth inh: 90; GIV Gai3 FP: 100; Sa growth inh second temp: 91

Results for O=C(Cn1c2ccccc2c(=O)c2cc(Cl)ccc21)N1CCN(c2ccccc2)CC1 ?
HCMV UL50-53 inh: -5; GIV Gai3 FP: 104

Results for Cc1ccc(C(=O)N(Cc2ccco2)c2ccccn2)cc1 ?
HCMV UL50-53 inh: 3; Sa growth inh: 110; GIV Gai3 FP: 103; Sa growth inh second temp: 87

Results for COc1ccc(-c2nc3c(c(SCC(N)=O)n2)Cc2ccccc2O3)cc1 ?
Sa growth inh: 112; GIV Gai3 FP: 98; Sa growth inh second temp: 93

Results for CCOC(=O)c1cc(-c2ccccc2)n(CCC(=O)N2CCCCCC2)c1C ?
Sa growth inh: 66; GIV Gai3 FP: 103; Sa growth inh second temp: 63

Results for O=C(Nc1ccccc1)NC1CCCCC1 ?
HCMV UL50-53 inh: -11; Sa growth inh: 69; Sa growth inh second temp: 78

How did CC(C)C(=O)NC(=S)Nc1ccc(N2CCCCC2)cc1 do in these assays?
HCMV UL50-53 inh: -24; Sa growth inh: 102; GIV Gai3 FP: 105; Sa growth inh second temp: 102

Results for COc1ccc(/C=N/n2cn[nH]c2=S)cc1OC ?
Sa growth inh: 109; GIV Gai3 FP: 99; Sa growth inh second temp: 84

Results for CC1NCCc2sccc21 (stereo not drawn) ?
HCMV UL50-53 inh: 3; Sa growth inh: 87; GIV Gai3 FP: 106; Sa growth inh second temp: 82

How did Cc1ccc(OCc2nnc(NC(=O)c3ncoc3-c3cccc(Cl)c3)s2)cc1 do in these assays?
HCMV UL50-53 inh: 17; Sa growth inh: 95; GIV Gai3 FP: 103; Sa growth inh second temp: 101

How did Cc1cc(C)cc(OC(C)C(=O)Nc2nonc2-c2ccc(C)c(C)c2)c1 (stereo not drawn) do in these assays?
HCMV UL50-53 inh: 22; GIV Gai3 FP: 108

Results for Clc1ccccc1CNCc1ccc2c(c1)OCO2 ?
HCMV UL50-53 inh: 3; Sa growth inh: 96; GIV Gai3 FP: 101; Sa growth inh second temp: 94

How did COc1ccc(NC(=O)c2cccc(N3CCCS3(=O)=O)c2)c(OC)c1 do in these assays?
Sa growth inh: 76; GIV Gai3 FP: 105; Sa growth inh second temp: 90

How did COc1ccc(-c2noc(N(C)c3ccccc3)n2)cc1 do in these assays?
Sa growth inh: 74; GIV Gai3 FP: 102; Sa growth inh second temp: 76

What do the screens show for `c1ccc(CNc2ccc3c(ccc4c5ccccc5[nH]c34)n2)cc1`?
Sa growth inh: 140; GIV Gai3 FP: 107; Sa growth inh second temp: 14

Results for CCOC(=O)c1c(NC(=O)Cc2ccc(OC)cc2)sc(C(=O)Nc2ccc(C)c(Cl)c2)c1C ?
HCMV UL50-53 inh: -18; GIV Gai3 FP: 103

Results for O=C(C=C1NCCN1)c1ccccc1 ?
HCMV UL50-53 inh: -10; Sa growth inh: 103; Sa growth inh second temp: 105

What do the screens show for `CC(NC(=O)Cn1[nH]c(=O)c2ccccc2c1=O)c1ccc(-n2ccnc2)cc1` (stereo not drawn)?
HCMV UL50-53 inh: -26; Sa growth inh: 80; Sa growth inh second temp: 84

How did O=C(Cc1cn2ccsc2n1)NCc1ccccc1 do in these assays?
HCMV UL50-53 inh: -1; Sa growth inh: 94; Sa growth inh second temp: 98

Results for O=C(CCCn1c(=O)c2cccn2c2ccc(F)cc21)Nc1ccccc1Br ?
HCMV UL50-53 inh: 0; GIV Gai3 FP: 102

Results for Cc1ccc(NC(=O)CN(C)S(=O)(=O)c2cccc3nsnc23)c(C)c1 ?
HCMV UL50-53 inh: -104; Sa growth inh: 110; GIV Gai3 FP: 102; Sa growth inh second temp: 90

What do the screens show for `CCC(=O)Nc1c(C#N)c2nc3ccccc3nc2n1Cc1ccccc1`?
HCMV UL50-53 inh: -17; Sa growth inh: 100; Sa growth inh second temp: 81

Results for Cn1cc(C(=O)NC2CCCC2)c(=O)c2cc(S(=O)(=O)N3CCCCC3)ccc21 ?
HCMV UL50-53 inh: -8; Sa growth inh: 113; GIV Gai3 FP: 109; Sa growth inh second temp: 93

What do the screens show for `CCOc1ccc(C2C3=C(CCCC3=O)Nc3ncnn32)cc1` (stereo not drawn)?
Sa growth inh: 109; GIV Gai3 FP: 104; Sa growth inh second temp: 98

What do the screens show for `COc1cccc(C2CC(c3cccs3)=NN2C(=O)CCC(=O)O)c1OC` (stereo not drawn)?
HCMV UL50-53 inh: -68; GIV Gai3 FP: 118

What do the screens show for `Cc1nc2sccn2c(=O)c1CCC(=O)O`?
HCMV UL50-53 inh: -25; Sa growth inh: 98; GIV Gai3 FP: 105; Sa growth inh second temp: 90

12 entries out of the list, sorted by molecular weight, largest number first.
Results for CCOC(=O)c1c(NC(=O)Cc2ccc(OC)cc2)sc(C(=O)Nc2ccc(C)c(Cl)c2)c1C ?
HCMV UL50-53 inh: -18; GIV Gai3 FP: 103

Results for O=C(CCCn1c(=O)c2cccn2c2ccc(F)cc21)Nc1ccccc1Br ?
HCMV UL50-53 inh: 0; GIV Gai3 FP: 102

Results for Cn1cc(C(=O)NC2CCCC2)c(=O)c2cc(S(=O)(=O)N3CCCCC3)ccc21 ?
HCMV UL50-53 inh: -8; Sa growth inh: 113; GIV Gai3 FP: 109; Sa growth inh second temp: 93

What do the screens show for `CC(NC(=O)Cn1[nH]c(=O)c2ccccc2c1=O)c1ccc(-n2ccnc2)cc1` (stereo not drawn)?
HCMV UL50-53 inh: -26; Sa growth inh: 80; Sa growth inh second temp: 84

What do the screens show for `COc1cccc(C2CC(c3cccs3)=NN2C(=O)CCC(=O)O)c1OC` (stereo not drawn)?
HCMV UL50-53 inh: -68; GIV Gai3 FP: 118

What do the screens show for `CCC(=O)Nc1c(C#N)c2nc3ccccc3nc2n1Cc1ccccc1`?
HCMV UL50-53 inh: -17; Sa growth inh: 100; Sa growth inh second temp: 81

What do the screens show for `CCOc1ccc(C2C3=C(CCCC3=O)Nc3ncnn32)cc1` (stereo not drawn)?
Sa growth inh: 109; GIV Gai3 FP: 104; Sa growth inh second temp: 98

How did COc1ccc(-c2noc(N(C)c3ccccc3)n2)cc1 do in these assays?
Sa growth inh: 74; GIV Gai3 FP: 102; Sa growth inh second temp: 76

Results for Clc1ccccc1CNCc1ccc2c(c1)OCO2 ?
HCMV UL50-53 inh: 3; Sa growth inh: 96; GIV Gai3 FP: 101; Sa growth inh second temp: 94

How did O=C(Cc1cn2ccsc2n1)NCc1ccccc1 do in these assays?
HCMV UL50-53 inh: -1; Sa growth inh: 94; Sa growth inh second temp: 98

What do the screens show for `Cc1nc2sccn2c(=O)c1CCC(=O)O`?
HCMV UL50-53 inh: -25; Sa growth inh: 98; GIV Gai3 FP: 105; Sa growth inh second temp: 90

Results for O=C(C=C1NCCN1)c1ccccc1 ?
HCMV UL50-53 inh: -10; Sa growth inh: 103; Sa growth inh second temp: 105

Next compounds follow:
What do the screens show for `Cc1c2c(=O)[nH]ncc2c(-c2ccccc2)n1CCSCc1c(F)cccc1Cl`?
HCMV UL50-53 inh: -17; Sa growth inh: 87; GIV Gai3 FP: 112; Sa growth inh second temp: 95

How did CN1C(=O)CSc2ccc(NC(=O)Nc3nccs3)cc21 do in these assays?
HCMV UL50-53 inh: -21; GIV Gai3 FP: 112

What do the screens show for `COc1ccc(C(=O)Cn2ccnc2C(=O)NCCc2ccc(Cl)cc2)cc1`?
Sa growth inh: 131; GIV Gai3 FP: 101; Sa growth inh second temp: 92

How did COc1cccc(CCNc2ncnc3c2nnn3C)c1 do in these assays?
Sa growth inh: 92; GIV Gai3 FP: 91; Sa growth inh second temp: 81

How did O=C(COc1ccccc1Cl)c1ccc[nH]1 do in these assays?
HCMV UL50-53 inh: -37; Sa growth inh: 68; Sa growth inh second temp: 91

What do the screens show for `O=c1[nH]c2ccccc2c(O)c1-c1nc2ccccc2s1`?
HCMV UL50-53 inh: 9; Sa growth inh: 117; Sa growth inh second temp: 89

How did Cc1c(NC(=O)C2Cc3ccccc3CN2S(=O)(=O)c2ccccc2F)c(=O)n(-c2ccccc2)n1C (stereo not drawn) do in these assays?
HCMV UL50-53 inh: -14; Sa growth inh: 95; Sa growth inh second temp: 88

How did Cn1c(=S)[nH]c2ccc(Br)cc2c1=O do in these assays?
HCMV UL50-53 inh: 0; Sa growth inh: 101; GIV Gai3 FP: 101; Sa growth inh second temp: 114

How did CN(C)c1ccc(N)cc1C(=O)O do in these assays?
HCMV UL50-53 inh: -24; Sa growth inh: 96; GIV Gai3 FP: 104; Sa growth inh second temp: 93

How did N=C1C(c2ccccc2)=C(O)CN1NC(=O)c1ccccc1 do in these assays?
HCMV UL50-53 inh: -14; Sa growth inh: 111; GIV Gai3 FP: 100; Sa growth inh second temp: 101

Results for COc1ccc(OC)c(NC(=O)N2CCN(c3cc(N(C)C)nc(C)n3)CC2)c1 ?
HCMV UL50-53 inh: -14; GIV Gai3 FP: 98

How did CCOC(=O)C1=C(CC)Nc2ccccc2N=C1NC(=O)C1CC(=O)N(CCc2ccccc2)C1 (stereo not drawn) do in these assays?
HCMV UL50-53 inh: -32; Sa growth inh: 79; Sa growth inh second temp: 87

What do the screens show for `COc1ccccc1Cc1nc2ccccc2nc1SCC(=O)N1CCc2ccccc21`?
Sa growth inh: 95; GIV Gai3 FP: 100; Sa growth inh second temp: 84

Results for OCCNCC1CC2C=CC1C2 (stereo not drawn) ?
HCMV UL50-53 inh: 18; Sa growth inh: 69; GIV Gai3 FP: 103; Sa growth inh second temp: 92

How did CN(C)S(=O)(=O)c1ccc(-c2cc(C(F)(F)F)on2)s1 do in these assays?
HCMV UL50-53 inh: -5; Sa growth inh: 100; GIV Gai3 FP: 100; Sa growth inh second temp: 94

What do the screens show for `CC(C)Nc1cc(N2CCN(C3CCCCC3)CC2)c2noc3c2c1C(=O)c1ccccc1-3`?
HCMV UL50-53 inh: -65; Sa growth inh: 99; GIV Gai3 FP: 192; Sa growth inh second temp: 77

Results for Cc1ccc(SCc2[nH]nc3c2C(C)C(C#N)=C(N)O3)cc1 (stereo not drawn) ?
HCMV UL50-53 inh: -14; Sa growth inh: 80; GIV Gai3 FP: 101; Sa growth inh second temp: 65

What do the screens show for `Cc1cc(C)c(C)c(Cn2c(C(C)O)nc3ccccc32)c1C` (stereo not drawn)?
HCMV UL50-53 inh: -21; GIV Gai3 FP: 103

Results for O=C(O)CCc1nc(CS(=O)(=O)c2ccc(F)cc2)no1 ?
HCMV UL50-53 inh: -22; GIV Gai3 FP: 92

What do the screens show for `Cc1ccc(N2CCN(S(=O)(=O)c3nnc(NC(=O)c4cccc(F)c4)s3)CC2)cc1`?
HCMV UL50-53 inh: 7; Sa growth inh: 111; GIV Gai3 FP: 105; Sa growth inh second temp: 84

How did Cc1ccc(NS(=O)(=O)c2cc3c4c(c2)CCN4C(=O)CC3)cc1Cl do in these assays?
HCMV UL50-53 inh: -7; GIV Gai3 FP: 101

Results for O=C(CSc1n[nH]c(-c2ccccc2)n1)N1CCN(c2ccc(F)cc2)CC1 ?
Sa growth inh: 91; GIV Gai3 FP: 105; Sa growth inh second temp: 91

Results for O=C(COc1ccccc1)Nc1sc2c(c1C(=O)Nc1ccccc1Cl)CCCCC2 ?
HCMV UL50-53 inh: -6; Sa growth inh: 95; GIV Gai3 FP: 102; Sa growth inh second temp: 94

What do the screens show for `c1ccc2c(c1)OCCCO2`?
HCMV UL50-53 inh: -15; Sa growth inh: 101; Sa growth inh second temp: 96

What do the screens show for `N[C@H](CCCP(=O)(O)O)C(=O)O`?
HCMV UL50-53 inh: -8; GIV Gai3 FP: 106

What do the screens show for `Cc1ccc(-n2c(C)cc(C(=O)CSc3nc(N)cc(N)n3)c2C)cc1C`?
HCMV UL50-53 inh: -11; Sa growth inh: 48; Sa growth inh second temp: 38

Results for CCOC(=O)c1ccc(NC(=O)c2ccc(S(=O)(=O)N3CCOCC3)cc2)s1 ?
HCMV UL50-53 inh: -20; Sa growth inh: 76; Sa growth inh second temp: 88

How did CCCCc1nc2n[nH]c(N)c2c2c1CCC2 do in these assays?
HCMV UL50-53 inh: 10; Sa growth inh: 95; GIV Gai3 FP: 103; Sa growth inh second temp: 92

How did CC(C)(C)c1ccc(C(=O)Nc2ccc(-c3nc4ccccc4o3)c(O)c2)cc1 do in these assays?
HCMV UL50-53 inh: -14; Sa growth inh: 90; GIV Gai3 FP: 101; Sa growth inh second temp: 88

What do the screens show for `NC(=O)c1nc(Cl)c(Cl)c(Cl)c1Cl`?
HCMV UL50-53 inh: -18; Sa growth inh: 94; Sa growth inh second temp: 81
